LT uptake inh: qHTS Assay for Anthrax Lethal Toxin Internalization; AID 912, 2007; hit rate 0.67% among 70,000; Potency, µM (doses to about 40 µM), for the others: at the top dose activity change, negative = inhibition, most hits filed as inhibitors; Cells, anthrax lethal toxin internalization, FRET ratio (460/530); active = well fitted falling ratio curve with the 530 nm signal flat; inconclusive = other ratio curves, or a change in one channel alone; inactive = flat curves in the ratio and both channels; the % refers to the ratio; note: % is set by controls: 0 for no effect and ±100 for the full control effect; nearly all actives have a fitted effect of over 50% in size; tested in ME-180 cells; beta-lactamase reporter
Prx2 Sm inh: Schistosoma Mansoni Peroxiredoxins (Prx2); Schistosoma mansoni peroxiredoxin 2 (Prx2); S. mansoni Prx2 activity coupled to TGR/GSH (TGR is thioredoxin glutathione reductase), NADPH fluorescence loss, qHTS; some inactives read as strong as hits; Potency, µM; hit rate 0.07% among 65,000; active means full or partial inhibition curve with a strong effect at the top dose; inconclusive means weaker partial or single-point curve; inactive means no accepted curve; note: series up to 57 µM; many of its hits are not listed in these tables
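Prx2 inhibition was measured as reduced NADPH consumption when electrons flowed from NADPH through TGR and glutathione to Prx2 and H2O2. Plates were read kinetically over 8 min; enzyme reagents were held at 4 deg C during dispensing.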
Active calls of the source: *; ? = inconclusive; / = not tested or not shown; & = joins results of further samples; [ ] = remark or other dose. Potency is the fitted concentration of half-maximal effect. These rows are one share of the data (hit frequency here may not be typical).

SMILES	LT uptake inh	Prx2 Sm inh
NS(=O)(=O)c1ccc(CNC(=O)NC2(c3ccccc3)CC2)cc1	2%	>57
Cc1ccc(N(CC(O)CN2CCOCC2)S(=O)(=O)c2ccc3ccccc3c2)cc1 (stereo not given)	-2%	/
Cn1c(CSc2ncccn2)nnc1SCC(=O)N1CCCCC1	-5%	>57
COc1ccc(S(=O)(=O)CCC(=O)O)cc1	-4%	>57
N#CCCn1c(=O)c(-c2cccc(C#N)c2)nc2cnc(Oc3cccc(Cl)c3)nc21	-13%	>11
COc1ccc(NC(=O)C2C3C=CC(C3)C2C(=O)NCc2ccco2)cc1 (stereo not given)	-3%	>57
NCCCC[C@H](N[C@@H](CCc1ccccc1)C(=O)O)C(=O)N1CCC[C@H]1C(=O)O	1%[3.58 µM]	>26
O=C(NCc1ccco1)c1cccc(-c2nnc(-c3ccccc3)o2)c1	?	>57
CC(=O)Nc1ccc(SCC(=O)c2cc(C)n(Cc3cccs3)c2C)cc1	-7%	>57
COc1ccc2[nH]c(=O)c(C(c3nnnn3C(C)(C)C)N(Cc3ccco3)CC3CCCO3)cc2c1 (stereo not given)	-15%	>57
CCOC(=O)C1C(=O)CC(C)(O)C(C(=O)OCC)C1c1cccs1 (stereo not given)	8%	/
O=C(NCCN1CCN(c2ccccc2)CC1)c1cccn2c(=O)c3cc(Cl)ccc3nc12	-2%	>57
CC(C)COC(=O)C1C2C=CC3(CN(C(C)c4ccc(Br)cc4)C(=O)C13)O2 (stereo not given)	?	>57
COc1ccc(CNC(=O)Cc2ccc(OC)c(S(=O)(=O)N3CCOCC3)c2)cc1	4%	>57
CC(C)CCN1C(=O)c2ccc(C(=O)NCc3ccco3)cc2C1=O	-3%	>57
O=C(O)c1n[nH]c2c1CCCC2	-12%	>57
Clc1ccc(Cn2ncc3c(NCc4ccco4)ncnc32)c(Cl)c1	0%	>57
COc1ccc(NC(=O)c2cnc3sccn3c2=O)cc1	2%	>57
Cc1cc(NC(=O)CSC2=NCCS2)no1	-12%	>57
O=C(Nc1cccnc1)c1scc2c1OCCO2	0%	>57
COc1cccc(C(=O)NC2CCN(C(=O)N3CCCCC3)CC2)c1	-1%	>57
CCCNC(=O)OC[C@@H]1O[C@H](CCO/N=C\[C@@H](C)[C@H](OCc2ccccc2)C(C)C)C=C[C@@H]1Oc1ccc(OC)cc1	?	/
CCC(C)Sc1nc2c(cnn2-c2ccc(C)c(C)c2)c(=O)[nH]1 (stereo not given)	-2%	>57
CC(=O)Nc1ccc(NC2(C)C(=O)c3ccccc3C2=O)cc1	-9%	/
CCn1c(=NC(=O)CSC(C)=O)sc2cc(F)ccc21	?	>57
SMILES	LT uptake inh	Prx2 Sm inh
COc1ccc(Nc2nc(N3CCCCC3)nc(N3CCCCC3)n2)c(OC)c1	-10%	/
Cc1cc(C)nc(Nc2n[nH]c(-c3ccccc3Br)n2)n1	10%	>57
CCOC(=O)N1CCC(NC(=O)CSCc2cnn(-c3ccccc3)c2-n2cccc2)CC1	11%	>57
c1ccc(CNC2=NCCCCC2)cc1	-5%	>57
COc1ccc(N2CCN(C(=O)Cc3ccc(-n4c(=O)[nH]c5ccccc5c4=O)cc3)CC2)cc1	9%	>57
O=C(Cn1c(CN2CCCCC2)nc2ccccc2c1=O)NC1CCCCC1	-18%	>57
COc1cccc2[nH]c3c(=O)n(CCN(C)C)cnc3c12	?	>57
FC(F)(F)C(F)(F)C(F)(F)c1nnc2ccc(N3CCOCC3)nn12	-9%	>57
CC(C)COC(=O)N1CCCC1C(=O)Nc1nccs1 (stereo not given)	-12%	>57
COc1ccc(-c2cc3nc(C)c(CCC(=O)N4CCCCC4)c(C)n3n2)c(OC)c1	-4%	>57
Brc1ccc2nc(CSc3ncn[nH]3)cn2c1	7%	>57
OCCn1c(-c2ccc3c(c2)OCO3)csc1=Nc1ccccc1	-5%	>57
CCOC(=O)C1CCN(C(=O)COC(=O)CCOc2ccc(C)cc2)CC1	4%	>57
O=C(c1n[nH]c(=O)c2ccccc12)N1CCN(c2ccc(F)cc2)CC1	-11%	>57
O=C(CSc1nnc(-c2ccccc2)n1-c1ccccc1)NCc1ccco1	1%	>57
Nc1cc(C(=O)O)ccc1N1CCCCCC1	7%	>57
CCn1c(SCc2nc3ccccc3[nH]2)nnc1-c1ccccc1OC	-7%	>57
N#Cc1c(NC(=O)COC(=O)C2CC3C=CC2C3)oc(-c2ccccc2)c1-c1ccccc1 (stereo not given)	?	>57
COc1ccc(C(=O)n2cnc(N)n2)cc1	12%	>57
c1ccc(CCn2nnnc2C(c2cccs2)N2CCN(Cc3ccc4c(c3)OCO4)CC2)cc1 (stereo not given)	-14%	>57
Cc1ccnc(N2CCC(C(=O)Nc3ccc4c(c3)OCO4)CC2)n1	1%	>57
N#Cc1ccc2ccn(CC(=O)NC3CCCCC3)c2c1	-6%	>57
N#CC(C(=O)O)=C1CCCC1	1%	>57
Cc1noc(C)c1S(=O)(=O)N1CCCC(C(=O)N2CCC(C)CC2)C1 (stereo not given)	5%	>57
Cc1cc(N2CCCC2=O)cc(C)c1S(N)(=O)=O	5%	>57
SMILES	LT uptake inh	Prx2 Sm inh
CC(=O)OCC1=C(C(=O)O)N2C(=O)[C@@H](NC(=O)CSc3ccncc3)[C@@H]2SC1	-1%[3.58 µM]	>57&>57
CC(C)NC(=O)CSc1nnc(-c2ccc(S(=O)(=O)N3CCCC3)cc2)n1CC1CCCO1 (stereo not given)	-24%	>57
CCOc1cc(NC(=O)c2ccco2)c(OCC)cc1NC(=O)Cc1ccc(OC)c(OC)c1	0%	>57
COc1ccccc1CNc1ccc(N2CCCCC2)cc1	-5%	>57
Cc1nn(-c2ccccc2)c(N2CCCC2)c1/C=N/n1cnc2scc(-c3ccccc3)c2c1=O	-17%	>57
CCCCn1c(O)c(C(C)=Nc2cccc(C(=O)O)c2)c(=O)[nH]c1=O	-5%	>57
CCOC(=O)c1c(C)nc(-c2ccccc2)nc1N	-2%	>57
CN(C)c1ncc2nc(-c3ccc(Cl)cc3)c(=O)n(C3CC3)c2n1	?	>57
COc1ccc(N2CCN(c3oc(-c4ccc(OC)c(OC)c4)nc3C#N)CC2)cc1	9%	>57
COc1nc(-c2ccccc2)ccc1-c1noc(-c2cccnc2)n1	11%	>57
O=C1CCC(=O)O1	-5%	/
Cc1nc2nc(SCC(=O)N3CCOCC3)nn2c(C)c1Cc1c(F)cccc1Cl	?	>57
C=CCOC(=O)C1=C(C)N(C)C(=O)NC1c1cc2c(cc1Br)OCO2 (stereo not given)	-11%	/
O=C(CCCN1CCC(O)(c2ccc(Cl)cc2)CC1)c1ccc(F)cc1	?	>57&>57&>57
O=C1c2ccccc2C(Nc2ccc3c(c2)OCCO3)N1Cc1ccc2c(c1)OCO2 (stereo not given)	?	>57
CN(C)c1ccc(NC(=O)Nc2ccc3snnc3c2)cc1	-6%	>57
CN1CC2(C(=O)c3ccccc3)CN(C)CC(C(=O)c3ccccc3)(C1)C2	6%	>57
O=C(CCCOc1ccccc1)N1CCCc2ccccc21	-5%	/
CCN1C(=O)[C@H]2[C@@H]3[C@H](O)[C@H](O)CC(=O)[C@H]3CC[C@H]2C1=O	?	/
CCCn1c(CCC(=O)O)ccc1-c1cccs1	?	>57
O=C(CNS(=O)(=O)c1cccc2nsnc12)NC1CCCCC1	6%	>57
Cc1cccc(-n2nnc(C(=O)NCc3ccccc3)c2N)c1	11%	>57
O=C(c1ccco1)N1CCN(C(=O)c2cccc3c2C(=O)N(Cc2cccnc2)C3)CC1	12%	>57
Cc1cc2c(c(=O)n1CCN(C)C)C(c1ccc(Br)cc1)C(C#N)=C(N)O2 (stereo not given)	-7%	>57
COC(=O)C(NC(=O)c1ccco1)(Nc1nc(C2CC2)cs1)C(F)(F)F (stereo not given)	-11%	>57

Complete entries, quoted from the list. Order of values: LT uptake inh | Prx2 Sm inh
COc1cccc(C(=O)NC2CCN(C(=O)N3CCCCC3)CC2)c1 is listed as -1% | >57
CN1CC2(C(=O)c3ccccc3)CN(C)CC(C(=O)c3ccccc3)(C1)C2 is listed as 6% | >57
Cc1cc(N2CCCC2=O)cc(C)c1S(N)(=O)=O is listed as 5% | >57
COc1ccc(CNC(=O)Cc2ccc(OC)c(S(=O)(=O)N3CCOCC3)c2)cc1 is listed as 4% | >57
NS(=O)(=O)c1ccc(CNC(=O)NC2(c3ccccc3)CC2)cc1 is listed as 2% | >57

Retrieved by compound from above (2):
SMILES	LT uptake inh	Prx2 Sm inh
O=C(CCCN1CCC(O)(c2ccc(Cl)cc2)CC1)c1ccc(F)cc1	?	>57&>57&>57
Cc1nn(-c2ccccc2)c(N2CCCC2)c1/C=N/n1cnc2scc(-c3ccccc3)c2c1=O	-17%	>57

(continued)
SMILES	LT uptake inh	Prx2 Sm inh
Cc1ccc2cc(C)c(SCC#N)nc2c1	-18%	>57
CCOc1ccccc1NC(=O)C1=C(C)NC(=O)NC1c1cccc(OC)c1OC (stereo not given)	-11%	>57
COC(=O)c1cc(Nc2cc(C)nc3ncnn23)cc(C(=O)OC)c1	9%	>57
COc1ccc(OC)c(-n2cnc3cc(C(=O)NCCCN4CCOCC4)ccc32)c1	-1%	>57
COc1ccc(CNC(=O)c2cccs2)cc1	5%	/
Cc1cc(C)c(NC(=O)C2CSCCS2)c(C)c1 (stereo not given)	1%	>57
O=C(O)C(Cl)(c1ccccc1)c1ccccc1	?	>57
CCOc1cc2[nH]c(=O)n(CCCCC(=O)NC3CCCCC3)c(=O)c2cc1OCC	9%	>57
COc1ccc(N(C(=O)COc2ccccc2)C2C=CS(=O)(=O)C2)cc1 (stereo not given)	-17%	>57
CC(=O)NC(C)c1ccc(Cl)c(Cl)c1 (stereo not given)	-9%	/
CC(C)[C@@H](CC(=O)N[C@@H]1CCNC[C@H]1C(=O)N[C@H](CC(=O)N[C@@H](CCC(=O)O)CC(=O)O)Cc1c[nH]c2ccccc12)NC(=O)C[C@H](Cc1ccccc1)NC(=O)[C@@H]1CCCC[C@H]1N	-4%	>57
CC1CCCCN1CCn1c(=S)[nH]c2ncccc2c1=O (stereo not given)	16%	>57
CCC1C(C#N)=C(SC)NC2=C1C(=O)CC(C)(C)C2 (stereo not given)	?	/
O=C(NCc1ccccc1)N1CCN(c2ccccc2F)CC1	6%	>57
COC(=O)c1cccc2c1-c1ccccc1/C2=N/O	?	>57
CCN(CCNC(=O)C1CCN(S(=O)(=O)c2cccc3cccnc23)CC1)c1ccccc1	1%	>57
COC(=O)C1=C(N)Oc2cc(C)n(Cc3cccnc3)c(=O)c2C1c1cccc(OC)c1OC (stereo not given)	/	>57
CCOC(=O)C1Cn2c(nc3c(c2=O)C2(CCCC2)Cc2ccccc2-3)S1 (stereo not given)	?	/
O=C(c1cccc(S(=O)(=O)N2CCCCC2)c1)N1CCOCC1	5%	>57
CCn1c(SCC(=O)N2CCCCC2)nnc1-c1ccc(S(=O)(=O)N2CCN(C)CC2)cc1	5%	>57
COc1ccc(N2C3=[N+](CCCC3)CC2(C)O)cc1 (stereo not given)	13%	>57
COc1ccccc1C(=O)Nc1ccccc1N1CCN(S(C)(=O)=O)CC1	-16%	>57
CCC(c1nnnn1C(C)(C)C)N1CCN(c2cc(Cl)ccc2C)CC1 (stereo not given)	?	>57
O=C(NCc1cccs1)C1CCC(CNS(=O)(=O)c2ccc(Br)s2)CC1 (stereo not given)	12%	>57
CC1(C)CC(=O)c2sc(NC(=O)CN3CCCCC3)nc2C1	-14%	/
SMILES	LT uptake inh	Prx2 Sm inh
CCCCn1c(=O)[nH]c(=O)c2c1nc(COc1ccc(C#N)cc1)n2CCC	?	>57
N=C1C(c2nc3ccccc3c(=O)[nH]2)=C(O)CN1CCO	2%	>57
COc1cc2ccccc2cc1C(=O)OCC(=O)N1CCOCC1	-1%	>57
COc1ccccc1CNS(=O)(=O)c1cc(C)ccc1OC	-6%	>57
N#Cc1nc(-c2ccccc2)oc1N1CCCCC1	/	>57
CC(=O)c1cccc(NC(=O)N2CCC(c3nnc(SCC(N)=O)n3C)CC2)c1	2%	>57
CC(C(=O)NC1=NCCS1)(C(F)(F)F)C(F)(F)F	-7%	>57
N#C/C(C(=O)c1ccccc1)=C1/SC=C(N)N1c1ccccc1	-29%	>57
CCc1cc2c(N3CCN(c4nnc(CC)s4)CC3)ncnc2s1	2%	>57
CCOc1ncccc1C(=O)OCC(=O)N1CC(=O)Nc2ccccc21	-4%	>57
CCC(Sc1nc(-c2ccccc2)cc(=O)[nH]1)C(=O)O (stereo not given)	-9%	>57
C=C(C)COc1ccc(-c2nc(N)ncc2-c2ccc(OC)cc2)c(O)c1	?	>57
CCCC1=C(C(=O)OCC)C(c2cc(Cl)cc(OC)c2OCC(=O)OCC)NC(=O)N1 (stereo not given)	19%	>57
Cc1cc(C)n(-c2nc3c(c(=O)[nH]c(=O)n3C)n2CC(C)C)n1	5%	>57
CCOC(=O)c1ccc(-n2c(N)c(C(=O)NCc3ccco3)sc2=S)cc1	?	>57
Cc1ccc(Nc2nc(N)nc(CN3CCCCCC3)n2)c(C)c1	11%	>57
CCOC(=O)c1cnc2c(C(=O)OC)cccc2c1NCc1ccco1	-6%	>57

A few values from above:
Result of CCCC1=C(C(=O)OCC)C(c2cc(Cl)cc(OC)c2OCC(=O)OCC)NC(=O)N1 (stereo not given) under Prx2 Sm inh: >57
Result of CC(=O)c1cccc(NC(=O)N2CCC(c3nnc(SCC(N)=O)n3C)CC2)c1 under Prx2 Sm inh: >57
Result of CCOC(=O)c1cnc2c(C(=O)OC)cccc2c1NCc1ccco1 under Prx2 Sm inh: >57
Result of CC(C(=O)NC1=NCCS1)(C(F)(F)F)C(F)(F)F under Prx2 Sm inh: >57
Result of COc1ccccc1CNS(=O)(=O)c1cc(C)ccc1OC under Prx2 Sm inh: >57
